Assay outcomes from PubChem BioAssay.
Lassa entry inh = qHTS for Inhibitors of binding or entry into cells for Lassa Virus; Lassa virus pseudotype entry inhibition, cell reporter; control for the full effect not named in the record; 1.2% of 300,000 active; Potency, µM (series often up to 37.9 µM), for the others: top-dose activity change, negative = inhibition, actives largely listed as inhibitors; AID 540256, 2011; active means well fitted inhibition curve with a large enough effect; inconclusive means small, poorly fitted or top-dose-only effect, or effect the other way; inactive means flat fitted curve, though single readings scatter; tested in HEK293 cells; further: on the % scale 0 is the no-effect control and ±100 the full control effect; nearly all actives have a fitted effect of over 50% in size; luciferase read-out
RE007 growth inh = qHTS Assay for Inhibitors of the HIV-1 protein Vpr | AID 651644, 2012 | Potency, µM (doses to about 92.2 µM), for the others: at the highest dose activity change, negative = less growth | 0.21% of 360,000 active | S. pombe RE007 Vpr strain, BacTiter-Glo ATP luminescence, 24 h; control for the full effect not named in the record; active = well fitted falling curve with a large enough effect; inconclusive = small, poorly fitted or top-dose-only effect; inactive = no such curve, though single readings can be large or run the other way;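 further: on the % scale 0 is the no-effect control and ±100 the full control effect; nearly all actives have a fitted effect of over 50% in size; the assay follows cell death caused by Vpr and the record does not say whether a fall means rescue or toxicity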
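Fission yeast RE007 carrying one integrated HIV-1 vpr copy, seeded at OD 0.01 in PMG+AL medium with 23 nL pinned compound. Grown 24 h at 30 degrees; viability read by BacTiter-Glo luminescence after 5 min.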
SARS PLP yeast = qHTS of Yeast-based Assay for SARS-CoV PLP. 0.19% of 330,000 active. AID 485353, 2010. Potency, µM (highest dose often 32.9 µM), inactives show at the top dose activity, positive = growth rescue. S. cerevisiae expressing SARS-CoV PLpro, growth rescue; control for the full effect not named in the record; active means well fitted rising curve with a large enough effect; inconclusive means small, poorly fitted or top-dose-only effect; inactive means no such curve, though single readings can be large or run the other way; further: 0% is about no effect; nearly all actives have a fitted effect of over 55% in size; growth read by luminescence after 48 h
Cruzain inh noDet = qHTS Assay for Promiscuous and Specific Inhibitors of Cruzain (without detergent); Cruzipain (Trypanosoma cruzi), P25779; purified cruzain, Z-FR-AMC fluorescence, no detergent; Potency, µM, for inactives: max response, negative = inhibition, usual class: inhibitors; 2.3% of 200,000 active;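 further: plate controls were enzyme without inhibitor for no effect and buffer without enzyme for full effect; nearly all actives have a fitted effect of over 40% in size; top concentration of the series not given in the record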
Target sequence (P25779 123-467 limits assumed): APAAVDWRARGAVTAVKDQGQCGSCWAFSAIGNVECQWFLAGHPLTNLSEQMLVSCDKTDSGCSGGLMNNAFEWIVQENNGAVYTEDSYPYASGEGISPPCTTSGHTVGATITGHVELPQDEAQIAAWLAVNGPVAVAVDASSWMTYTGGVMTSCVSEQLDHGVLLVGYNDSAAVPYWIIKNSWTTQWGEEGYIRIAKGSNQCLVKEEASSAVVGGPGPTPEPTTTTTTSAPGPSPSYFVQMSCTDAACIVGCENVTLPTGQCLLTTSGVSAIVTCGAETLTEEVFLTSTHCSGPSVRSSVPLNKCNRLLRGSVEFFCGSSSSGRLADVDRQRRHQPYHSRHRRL
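Detergent-free condition (0.00005% Triton X-100) in acetate buffer pH 5.5 with DTT. 1.5 nM enzyme and compound were pre-mixed 15 min, then 2 uM Z-FR-AMC substrate added; reaction progress from fluorescence change between first and third reads (60 s).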
NS1 function inh = qHTS Assay for Inhibitors of Influenza NS1 Protein Function; S. cerevisiae slowed by influenza A NS1, growth recovery by OD600; Potency, µM (titrated, usually from 46.1 µM), without a hit: at the top dose activity, positive = more growth; 0.4% of 270,000 active; AID 2326, 2010; active means well fitted rising curve with a large enough effect; inconclusive means small, poorly fitted or top-dose-only effect; inactive means no such curve, though single readings can be large or run the other way; further: nearly all actives have a fitted effect of over 50% in size
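Growth recovery, yeast-based: influenza A NS1 expressed in S. cerevisiae causes slow growth, and suppressors are detected by OD600. The parent strain without NS1 is used as positive control.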
Cruzain Triton = qHTS Assay for Promiscuous and Specific Inhibitors of Cruzain (with detergent) | 0.43% of 200,000 active | Potency, µM, inactives show max response, negative = inhibition, hits mostly inhibitors | AID 1478, 2009 | purified cruzain, Z-FR-AMC fluorescence, 0.01% Triton;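 further: plate controls were neutral wells for no effect and buffer without enzyme for full effect; nearly all actives have a fitted effect of over 40% in size; top concentration of the series not given in the record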
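Purified cruzain (1.5 nM final) was preincubated with compounds for 15 min at room temperature in 100 mM sodium acetate pH 5.5, 5 mM DTT, 0.01% Triton X-100. Reaction started with 2 uM Z-FR-AMC; AMC fluorescence change over 60 s gave activity.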
2A StopGo = High Throughput Screening for Foot and Mouth Disease Virus Antivirals | 1.2% of 410,000 active | human cells with a luciferase reporter of 2A StopGo recoding; control for the full effect not named in the record | Potency, µM (titrated, usually from 57.9 µM), for inactives: at the top dose signal change, negative = less light; active = well fitted falling curve with a large enough effect; inconclusive = small, poorly fitted or top-dose-only effect; inactive = no such curve, though single readings can be large or run the other way; tested in HEK293T cells; further: on the % scale 0 is the no-effect control and ±100 the full control effect; nearly all actives have a fitted effect of over 45% in size; luciferase light after 4 h
MARV entry inh = qHTS for inhibitors of binding or entry into cells for Marburg Virus; Marburg virus pseudotyped entry inhibition, cell reporter; control for the full effect not named in the record; about a third of the inactives were read at about 46 µM; Potency, µM (top dose mostly 37.8 µM), inactives show at the top dose activity change, negative = inhibition, usual class: inhibitors; 1.8% of 300,000 active; AID 540276, 2011; active = well fitted inhibition curve with a large enough effect; inconclusive = small, poorly fitted or top-dose-only effect, or effect the other way; inactive = flat fitted curve, though single readings scatter; tested in HEK293 cells; about a fifth of its hits are not listed in these tables; further: on the % scale 0 is the no-effect control and ±100 the full control effect; luciferase read-out
The depositor's hits bear a star; ? = inconclusive; nt = not tested or not shown; & = joins results of further samples; [ ] = another dose, or the depositor's remark. Unless noted, the call rests on the fitted dose curve; in most records, active means well fitted curve in the direction sought with a large enough effect; inconclusive means small, poorly fitted or top-dose-only effect, or another doubt; inactive means no such curve, though single readings can be large; an effect the other way counts as inactive or inconclusive. Potency means the concentration at half of the fitted maximal effect.

SMILES | Lassa entry inh | RE007 growth inh | SARS PLP yeast | Cruzain inh noDet | NS1 function inh | Cruzain Triton | 2A StopGo | MARV entry inh
CCOC(=O)N1CCC(NS(=O)(=O)c2ccc3c(c2)C(C)(C)C(=O)N3C)CC1 | -8% | -29% | -1% | -1% | -3% | 5.0% | 7% | 8%
COc1ccc(NC(=O)CCCN2C(=O)CCn3nc(-c4cn(C)c5ccccc45)cc32)cc1 | -8%[46.1 µM] | nt | nt | ? | nt | -1.3% | -25% | nt
Cc1nc2c(c(C)c1CCC(=O)NCc1ccccc1)c(=O)n(C)c(=O)n2C | ? | nt | nt | -2% | nt | 1.4% | 1% | 3%[46.1 µM]
O=S(=O)(c1ccccc1)N1CCN(CCO)CC1 | nt | 2% | -6% | nt | -6% | nt | -12% | nt
CN1CCN(S(=O)(=O)c2ccc(N(C)Cc3ccc(C(F)(F)F)cc3)c([N+](=O)[O-])c2)CC1 | ? | 6% | 3% | nt | nt | nt | ? | 10µM*
CCN1CCc2nc3sc(C(=O)Nc4cccnc4Cl)c(N)c3cc2C1 | nt | -11% | -6% | nt | 17% | nt | -5% | nt
Cc1nc(NCc2ccco2)c(C#N)c2c1COC(C)(C)C2 | 21% | -19% | -1% | -5% | 0% | -4.0% | -15% | 9%
Cc1c(NC(=O)C(=O)/C=C(/O)c2ccccc2)c(=O)n(-c2ccccc2)n1C | 11% | -12% | -25% | 0% | 4% | -1.9% | -14% | 7%
OCCN(CC#CC(O)(c1ccccc1)c1ccccc1)CCO | ? | 2% | -1% | nt | 3% | nt | -8% | 3%
CC1CCCCN1S(=O)(=O)c1ccc(C(=O)N(CCCN(C)C)c2nc3ccc(Br)cc3s2)cc1 (configuration not stated) | ? | 17% | 9% | nt | -32% | nt | ? | ?
C[C@@]12CCC=C[C@H]1[C@H](c1ccc(C(F)(F)F)cc1)N(Cc1ccccc1)C2=O | nt | -8% | -17% | nt | -56% | nt | ? | nt
CCCn1c2ccccc2c2cnn(CC(=O)NCCOC)c(=O)c21 | nt | -5% | -1% | nt | 3% | nt | 0% | nt
COc1ccc(Cl)cc1C(=O)N1CCN(Cc2ccc3c(c2)OCO3)CC1 | nt | 2% | 1% | nt | 2% | nt | -19% | nt
O=C(O)c1ccc(Oc2ccc(S(=O)(=O)c3ccc(C(=O)O)c(C(=O)O)c3)cc2)cc1 | nt | 3% | -9% | nt | ? | nt | -17% | nt
Cc1ccc(NC(=O)CN2C(=O)S/C(=C\c3cccn3C)C2=O)cc1 | -25% | 5% | 13% | ? | 0% | 3.5% | nt | -13%
COc1ccc(NS(=O)(=O)c2ccc(NS(=O)(=O)c3ccc(SC)cc3)cc2)c(OC)c1 | 13% | 2% | 0% | 3% | 21% | -8.6% | 19% | -6%
COc1ccc(C(C)=O)cc1COC(=O)CSC(C)C(=O)Nc1cc(C)on1 (configuration not stated) | 13% | 1% | -2% | nt | nt | nt | -14% | 4%
Cn1c(NCc2cccc(Cl)c2)nc2ccccc21 | -4%[46.1 µM] | nt | nt | -10% | nt | -3.2% | 9% | -10%[46.1 µM]
COc1ccc(-n2nc3c(c2NC(=O)COc2ccccc2)CS(=O)(=O)C3)cc1 | nt | 13% | 2% | nt | -3% | nt | -19% | nt
COc1ccc(NC(=O)c2ccco2)cc1NC(=O)c1c(F)c(F)c(OC)c(F)c1F | -17% | -12% | 0% | 2% | 0% | 8.3% | -8% | 31%
CCOc1cc(C2C3=C(CC(C)(C)CC3=O)N(C)C3=C2C(=O)CC(C)(C)C3)ccc1O | nt | 4% | -1% | nt | 10% | nt | -11% | nt
COc1ccc(OCC(O)CNC(C)c2ccccc2)cc1 (configuration not stated) | nt | 11% | -2% | nt | 1% | nt | -1% | nt
O=S(=O)(Cc1ccc(Cl)cc1)c1ccccc1-c1nnc(-c2ccccc2)o1 | ? | 24% | 6% | -22% | 7% | -7.8% | -14% | -6%
Cc1nn(C(C)C(=O)O)c(=O)c2c1sc1ccccc12 (configuration not stated) | 35%[14.3 µM] | -2% | -1% | 9% | -1% | 3.2% | 11% | -7%
CCOc1cc(NC(=S)NCc2ccco2)c(OCC)cc1NC(=O)c1ccco1 | 11%[46.1 µM] | -3% | -2% | nt | 9% | nt | 43%[activator] | ?
Cc1nn(C)c(C(=O)NNC(=O)NC2CCCCC2)c1Cl | nt | 6% | -1% | nt | 13% | nt | -4% | nt
CCOCCCn1c(SCc2nc3sc(C(=O)O)c(C)c3c(=O)[nH]2)nnc1-c1ccc(Cl)cc1 | 3% | 8% | 1% | nt | nt | nt | 5% | 0%
Cc1ccc(SCc2ccc(C(=O)Nc3cccc([N+](=O)[O-])c3C)cc2)cc1 | -26% | 8% | 1% | -13% | -15% | -2.1% | nt | ?
CCN(CC)CCNC(=O)c1ccc(Cl)c(S(=O)(=O)Nc2ccc(Cl)cc2)c1 | 12%[46.1 µM] | -14%&-2% | 3% | -14% | -3% | 0.0% | 29%&0% | ?
CCOc1ccc(C(=O)Nc2nnc(SCc3cc(=O)c4cc(C)ccc4[nH]3)s2)cc1 | 16%[46.1 µM] | nt | nt | -4% | nt | 2.9% | -3% | nt
CCN(CC)C(=O)C1CCN(S(=O)(=O)c2cccc3nonc23)CC1 | -6% | -13% | 2% | 1% | 7% | -0.2% | nt | 7%
O=C(CN1CCN(c2ccc(F)cc2)CC1)Nc1ccc2c(c1)OCCO2 | -30% | 2% | -4% | nt | 1% | nt | -15% | -1%[46.1 µM]
Cc1ccc2nc(NC(=O)C3CCN(c4ncnc5sc(C)c(C)c45)CC3)sc2c1 | 29% | 18% | -2% | nt | 6% | nt | 0% | 8%
Cc1ccc(C)c(CN2C(=O)c3ccccc3S(=O)c3ccc(C(=O)N4CCCCC4)cc32)c1 (configuration not stated) | ? | nt | nt | 4% | nt | -3.3% | 0% | ?
O=C1CC(=O)C(n2cncn2)C(c2cccc(Cl)c2)C1 (configuration not stated) | 5% | 8% | -3% | 8% | 16% | 2.0% | 8% | -2%
O=C(NC(=S)N1CCN(C/C=C/c2ccccc2)CC1)c1ccc(F)cc1 | ? | -12% | 1% | nt | -17% | nt | -22% | ?
CNC(=S)NNC(=O)c1sc2cc(C(F)(F)F)cnc2c1-c1cccnc1 | -15%[46.1 µM] | -9% | 0% | nt | nt | nt | -16% | 11%[46.1 µM]
COc1ccc(C2CC(c3ccccc3)=NN2c2ccc(S(N)(=O)=O)cc2)cc1 (configuration not stated) | ? | 12% | 0% | nt | 24% | nt | -12% | ?
O=C(Nc1ccc(NC(=O)c2ccc3c(c2)OCCO3)cc1)c1ccccc1 | ? | 10% | -1% | nt | 2% | nt | 30%[activator] | ?
CN1C(=O)N(CN2CCCCC2)C2C1N(C)C(=O)N2CN1CCCCC1 (configuration not stated) | 4% | 7% | 3% | 3% | 0% | 0.9% | -7% | 1%
CC1(c2ccccc2Cl)NC(=O)N(CC(=O)Nc2ccc3c(c2)OCO3)C1=O (configuration not stated) | 9% | -1% | 1% | nt | 5% | nt | -18% | 10%[46.1 µM]
Cc1ccc(NC(=O)CN2C(=O)CC(C)S(=O)(=O)c3ccccc32)cc1 (configuration not stated) | 17%[46.1 µM] | -5% | -6% | nt | -4% | nt | -2% | -1%[46.1 µM]
CCCCC(=O)NS(=O)(=O)c1ccc(N=NN2CCCCC2)cc1 | 1% | 8% | -4% | -13% | -3% | -5.7% | 39%[activator] | 23%
O=C(Nc1ccc(C(F)(F)F)cc1)c1csc(-c2ccncc2)n1 | ? | 3% | -3% | nt | -6% | nt | 0% | ?
COc1ccc(S(=O)(=O)NCCc2cn3nc(C)c(C)nc3n2)cc1C | nt | 8% | -2% | nt | -5% | nt | 8% | nt
CC(C)Cc1nc(N2CCNCC2)c(C#N)c2c1CCC2 | -2% | -8% | 1% | nt | 0% | nt | -12% | ?
CCN1CCN(c2cc(C)c3cc(NC(=O)c4ccccc4F)ccc3n2)CC1 | ? | nt | -4% | 0%&-9% | -2% | -4.6%&-7.4% | 17% | ?
CCc1cc(-c2n[nH]c(=S)n2-c2cccc(C)c2)cs1 | 4% | 5% | -6% | -3% | -38% | -2.3% | 11% | 5%
CCOC(=O)c1c(NC(=S)NC(=O)c2ccc(Cn3cc(Cl)cn3)o2)sc2c1CCCCC2 | ? | -3% | 4% | ? | 2% | 0.4% | -21% | ?
O=C(Nc1nnc(CCN2CCOCC2)s1)C1CCCCC1 | 14% | -20% | 10% | -6% | -1% | 2.1% | 8% | 2%
CCC(=O)n1nc(NCc2ccccc2OC)nc1NCc1ccccc1OC | ? | 16% | -10% | 11% | -14% | -8.1% | ? | ?
CCc1ccc(NC(=S)N2CCC(NC(=O)C3CCCCC3)CC2)cc1 | nt | -15% | -1% | nt | 13% | nt | 9% | 18%[46.1 µM]
COc1ccc(NC(=O)c2cc(-c3ccccn3)nc3c(C)cc(C)cc23)c(C)c1 | 7% | -5% | -2% | nt | ? | nt | -11% | -3%
COc1ccc2nc(NC(=O)CCN3C(=O)c4ccccc4C3=O)sc2c1 | -3% | -13% | 3% | -3% | 0% | 13% | -10% | 16%
CCC(=O)N1CCc2cc(S(=O)(=O)NCCC(=O)Nc3ccc(N(CC)CC)cc3C)ccc21 | 4%[46.1 µM] | nt | nt | 6% | nt | -1.0% | -17% | -9%[46.1 µM]
CC(C)(C)C(=O)Nc1ccc(-c2nc3ccccc3c(=O)o2)cc1 | ? | -2% | 1% | nt | 7% | nt | 4.5µM* | ?
Cc1ccc(S(=O)(=O)CC(=O)c2cc(C)c(OC(=O)N(C)C)c(C)c2)cc1 | ? | 10% | 1% | nt | nt | nt | 12% | 11%[46.1 µM]
Cc1cc(Nc2ccccc2)nn1C(=O)c1ccc([N+](=O)[O-])cc1 | -3% | -3% | 16% | -10% | 7% | -12% | -15% | -20%
Cc1cnc(C(=O)N2CCN(S(=O)(=O)c3cccc(Br)c3)CC2)cn1 | -10%[46.1 µM] | 7% | 26% | nt | nt | nt | -1% | 3%[46.1 µM]

Rows were taken by chance; overall some 4.5% were active at least once.
